SARS PLpro yeast – SARS-CoV PLP inhibition in yeast; S. cerevisiae expressing SARS-CoV PLpro, growth rescue; control for the full effect not named in the record; Potency, µM (titrated, usually from 32.9 µM), for the others: top-dose activity, positive = growth rescue; hit rate 0.19% among 330,000; note: 0% is about no effect; nearly all actives have a fitted effect of over 55% in size; growth read by luminescence after 48 h
MARV entry inh – blocks Marburg virus binding to or entry into cells | Marburg virus pseudotyped entry inhibition, cell reporter; control for the full effect not named in the record; about a third of the inactives were read at about 46 µM | Potency, µM (highest dose often 37.8 µM), for the others: at the top dose activity change, negative = inhibition, actives largely listed as inhibitors | hit rate 1.8% among 300,000 | AID 540276; active = well fitted inhibition curve with a large enough effect; inconclusive = small, poorly fitted or top-dose-only effect, or effect the other way; inactive = flat fitted curve, though single readings scatter; tested in HEK293 cells; about a fifth of its hits are not listed in these tables; note: % is set by controls: 0 for no effect and ±100 for the full control effect; luciferase read-out
Cruzain Triton – blocks cruzain activity in presence of Triton detergent. P25779. purified cruzain, Z-FR-AMC fluorescence, 0.01% Triton. Potency, µM, inactives show max response, negative = inhibition, usual class: inhibitors. hit rate 0.43% among 200,000. AID 1478; active = well fitted curve in the direction sought with a large enough effect; inconclusive = small, poorly fitted or top-dose-only effect, or another doubt; inactive = no such curve, though single readings can be large; an effect the other way counts as inactive or inconclusive;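 note: plate controls were neutral wells for no effect and buffer without enzyme for full effect; nearly all actives have a fitted effect of over 40% in size; top concentration of the series not given in the record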
Target sequence (P25779 123-467 limits assumed): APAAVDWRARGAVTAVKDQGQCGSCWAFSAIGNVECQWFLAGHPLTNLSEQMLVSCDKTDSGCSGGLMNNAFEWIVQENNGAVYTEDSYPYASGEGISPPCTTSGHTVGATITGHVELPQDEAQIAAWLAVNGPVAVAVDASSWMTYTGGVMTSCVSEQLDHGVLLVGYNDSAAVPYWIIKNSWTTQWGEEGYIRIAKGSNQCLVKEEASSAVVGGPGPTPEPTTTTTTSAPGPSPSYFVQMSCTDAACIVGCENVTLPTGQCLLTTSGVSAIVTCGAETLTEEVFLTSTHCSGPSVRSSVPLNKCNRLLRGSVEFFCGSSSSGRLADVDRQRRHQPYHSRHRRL
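Read-out: AMC fluorescence (360 nm excitation, 450 nm emission), four reads over 2 min, first-to-third difference used. Conditions: cruzain 1.5 nM, Z-FR-AMC 2 uM, pH 5.5 acetate, 5 mM DTT, 0.01% Triton X-100.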
NS1 inh – inhibitors of influenza NS1 protein function; S. cerevisiae slowed by influenza A NS1, growth recovery by OD600; Potency, µM (series often up to 46.1 µM), inactives show at the top dose activity, positive = more growth; hit rate 0.4% among 270,000; AID 2326; note: actives are rising curves; nearly all actives have a fitted effect of over 50% in size
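Growth recovery, yeast-based: influenza A NS1 expressed in S. cerevisiae causes slow growth, and suppressors are detected by OD600. The parent strain without NS1 is used as positive control.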
StopGo reporter – lowers the luciferase signal of an FMDV 2A StopGo reporter | human cells with a luciferase reporter of 2A StopGo recoding; control for the full effect not named in the record | Potency, µM (series often up to 57.9 µM), without a hit: top-dose signal change, negative = less light | hit rate 1.2% among 410,000 | AID 1159524; active = well fitted falling curve with a large enough effect; inconclusive = small, poorly fitted or top-dose-only effect; inactive = no such curve, though single readings can be large or run the other way; tested in HEK293T cells; note: % is set by controls: 0 for no effect and ±100 for the full control effect; nearly all actives have a fitted effect of over 45% in size; luciferase light after 4 h
RE007 growth inh – less growth of the S. pombe RE007 Vpr strain; hit rate 0.21% among 360,000; Potency, µM (doses to about 92.2 µM), for inactives: at the top dose activity change, negative = less growth; AID 651644; S. pombe RE007 Vpr strain, BacTiter-Glo ATP luminescence, 24 h; control for the full effect not named in the record; active = well fitted falling curve with a large enough effect; inconclusive = small, poorly fitted or top-dose-only effect; inactive = no such curve, though single readings can be large or run the other way;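 note: % is set by controls: 0 for no effect and ±100 for the full control effect; nearly all actives have a fitted effect of over 50% in size; the assay follows cell death caused by Vpr and the record does not say whether a fall means rescue or toxicity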
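Fission yeast RE007 carrying one integrated HIV-1 vpr copy, seeded at OD 0.01 in PMG+AL medium with 23 nL pinned compound. Grown 24 h at 30 degrees; viability read by BacTiter-Glo luminescence after 5 min.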
Lassa entry inh – inhibitors of Lassa virus binding or cell entry. AID 540256. hit rate 1.2% among 300,000. Lassa virus pseudotype entry inhibition, cell reporter; control for the full effect not named in the record. Potency, µM (highest dose often 37.9 µM), for the others: at the top dose activity change, negative = inhibition, usual class: inhibitors; active means well fitted inhibition curve with a large enough effect; inconclusive means small, poorly fitted or top-dose-only effect, or effect the other way; inactive means flat fitted curve, though single readings scatter; tested in HEK293 cells; note: % is set by controls: 0 for no effect and ±100 for the full control effect; nearly all actives have a fitted effect of over 50% in size; luciferase read-out
Cruzain inh noDet – inhibitors of Trypanosoma cruzi cruzain without detergent; purified cruzain, Z-FR-AMC fluorescence, no detergent; P25779; Potency, µM, for inactives: max response, negative = inhibition, usual class: inhibitors; AID 1476; hit rate 2.3% among 200,000; active = well fitted curve in the direction sought with a large enough effect; inconclusive = small, poorly fitted or top-dose-only effect, or another doubt; inactive = no such curve, though single readings can be large; an effect the other way counts as inactive or inconclusive;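 note: plate controls were enzyme without inhibitor for no effect and buffer without enzyme for full effect; nearly all actives have a fitted effect of over 40% in size; top concentration of the series not given in the record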
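Detergent-free condition (0.00005% Triton X-100) in acetate buffer pH 5.5 with DTT. 1.5 nM enzyme and compound were pre-mixed 15 min, then 2 uM Z-FR-AMC substrate added; reaction progress from fluorescence change between first and third reads (60 s).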
* hit, by the source's call; ? = inconclusive; · = no result given; & = joins results of further samples; [ ] = dose if it differs, or a comment. Unless noted, calls come from the whole dose curve; as a rule, active means well fitted rising curve with a large enough effect; inconclusive means small, poorly fitted or top-dose-only effect; inactive means no such curve, though single readings can be large or run the other way. Potency is the fitted concentration of half-maximal effect.

SMILES	SARS PLpro yeast	MARV entry inh	Cruzain Triton	NS1 inh	StopGo reporter	RE007 growth inh	Lassa entry inh	Cruzain inh noDet
CCOc1cc(/C=N/NC(=O)c2cc(C)n(-c3ccc(F)cc3)c2C)ccc1O	-1%	·	·	7%	-29%	-2%	·	·
O=C(Nc1ccccc1)c1cc(-n2cnnc2)ccc1Cl	10µM*	1%	12%	11%	20%	12%	8%	-8%
Cc1nnc2n1N=C(c1ccc(OC(F)F)cc1)C(C)S2 (stereo not drawn)	-3%	-3%[46.1 µM]	·	26%	-9%	8%	-31%[46.1 µM]	·
Nc1nc2nn(-c3ccccc3)nc2c(=O)[nH]1	0%	·	·	0%	32%[activator]	-9%	·	·
CCCCc1c(O)nc(SCC(=O)N2CCOCC2)n(-c2ccc(OC)cc2)c1=O	7%	4%[46.1 µM]	·	6%	2%	0%	0%	·
COc1ccc(CCNS(=O)(=O)c2ccc3c(c2)NC(=O)CO3)cc1OC	2%	1%[46.1 µM]	·	5%	-13%	4%	-17%[46.1 µM]	·
Cc1ccc(/C=C/c2nc3sc(C(=O)O)c(C)c3c(=O)[nH]2)cc1[N+](=O)[O-]	10%	11%[46.1 µM]	·	2%	3%	13%	5%[46.1 µM]	·
CCCCN(C(=O)COC(=O)c1ccccc1)c1c(N)n(CCC)c(=O)[nH]c1=O	-3%	?	·	·	-12%	0%	-21%[46.1 µM]	·
COc1ccccc1NC(=O)C1CCCN(c2nnc(C)c3c(C)n(-c4ccccc4)nc23)C1 (stereo not drawn)	·	·	-3.9%	·	-19%	·	1%[46.1 µM]	18%
O=C(c1cnn(C(=O)c2ccccc2)c1)c1ccccc1O	-7%	?	-6.3%	-7%	-15%	-9%	6%	-20%
Cc1cccc(Nc2c(-c3ccc(O)cc3)nc3ncccn23)c1	2%	-18%	·	·	0%	5%	-22%	·
CN(c1ccccc1)S(=O)(=O)c1ccc(NC(=S)NC(=O)C2CC2)cc1	-11%	0%	-5.0%	10%	-7%	6%	?	-26%
CC(NCc1ccc(F)cc1)C(=O)NC1CCCCC1 (stereo not drawn)	0%	17%[46.1 µM]	·	2%	-15%	-2%	0%	·
O=C(Oc1ccccc1)c1cccnc1Oc1ccccc1	-1%	·	·	-8%	-6%	-10%	·	·
O=C(Nc1ccc(F)c(F)c1)c1cc(S(=O)(=O)N2CCc3ccccc32)ccc1F	·	·	-1.0%	·	-19%	·	3%[46.1 µM]	0%
Cc1ccc(C(=O)C2C(=O)c3ccccc3C2=O)cc1	-14%	-15%	0.8%	-76%	·	-2%	-1%	-5%
Cc1nc2cc(C(=O)O)ccc2n1C1CCCCC1	-3%	13%	2.0%	8%	2%	18%	1%	-13%
O=C(O)CCCNC(=O)Nc1ccccc1	3%	20%	2.0%	-5%	-12%	-9%	13%	-3%
CCC(C)NC(=O)CN1C(=O)CN=C(c2ccccc2)c2ccccc21 (stereo not drawn)	4%	6%[46.1 µM]	·	·	-1%	1%	-7%	·
CC1CCCN(C(=O)c2ccc(CSc3nc4ccncc4n3Cc3ccccc3)cc2)C1 (stereo not drawn)	·	?	-16%	·	-21%	·	·	3%
CNc1nc2c(-c3ccc(Cl)cc3)nnn2c2ccccc12	1%	5%	·	1%	3%	-9%	·	·
Cc1cc(N2CCN(c3cc(Cl)ccc3C)CC2)n2nc(-c3ccccc3)nc2n1	·	1%[46.1 µM]	0.8%	·	6%	·	13%[46.1 µM]	4%
Cc1ccc(CNC(=O)c2cnc(N(C)C)nc2)cc1	·	·	0.3%	·	-2%	·	11%[46.1 µM]	-13%
CCOc1ccccc1OCC(=O)NNC(=O)Cn1cnc2c1c(=O)n(C)c(=O)n2C	0%	14%[46.1 µM]	·	·	-8%	3%	·	·
Cc1ccc(S(=O)(=O)N2CCN=C2SC(C)c2ccccc2)cc1 (stereo not drawn)	-5%	-2%	·	-6%	?	-8%	?	·
CC(=O)OCC(=O)Nc1c(C)cc(C)cc1C	0%	7%	·	·	-23%	34%	-20%	·
O=C(CNS(=O)(=O)c1ccc(F)cc1)N1CCN(c2ccc(F)cc2)CC1	-1%	-12%	6.5%	-49%	-11%	9%	6%	8%
COc1ccc(OCC(=O)O/N=C(\N)c2ccc(OC)cc2)cc1	-2%	?	·	-9%	-11%	-16%	?	·
COc1cc(CNC(C)(C)CO)cc(Br)c1OCc1ccc(Cl)cc1Cl	-35%	13µM*	-4.5%	-18%	?	36%	?	7%
Cc1c(Cl)cccc1NC(=S)N1CCc2ccccc2C1	3%	·	·	4%	3%	0%	·	·
Cc1ccc(C(=O)Nc2c(C(=O)NC(C)(C)C)oc3ccccc23)cc1	·	·	-1.3%	·	-32%	·	-18%[46.1 µM]	11%
O=C(CNC(=O)c1ccc(F)cc1)c1ccccc1	5%	·	·	9%	47%[activator]	1%	·	·
O=C(CSc1ccccc1)NC1=NCCS1	-1%	15%	·	5%	0%	-2%	6%	·
COc1cc(C2c3c(oc4c(C)cc(C)cc4c3=O)C(=O)N2Cc2cccnc2)ccc1O (stereo not drawn)	·	-27%&-27%	·	?	?	-9%	0%	·
Cc1ccsc1C(=O)N1CC(=O)Nc2ccccc21	0%	?	-0.7%	-1%	9%	4%	-2%	-6%
CCC(c1nnnn1Cc1ccccc1)N1CCN(C(=O)c2ccco2)CC1 (stereo not drawn)	8%	?	-1.0%	?	-18%	30%	2%	10%
NS(=O)(=O)c1ccc(NC(=O)Nc2ccc(S(N)(=O)=O)cc2)cc1	1%	0%[46.1 µM]	·	0%	-16%	-1%	-4%	·
CCOc1ccccc1NC(=O)C1=C(C)Nc2ncnn2C1c1cccs1 (stereo not drawn)	·	·	-0.8%	·	-5%	·	?	1%
O=C(Nc1ccccc1)NC1(C(=O)NCc2ccc3c(c2)OCO3)CCCCC1	7%	-6%	-1.2%	8%	24%	11%	3%	7%
CCN(CC)CCOc1ccc2c(c1)C(=NNC(=O)c1ccccn1)c1cc(OCCN(CC)CC)ccc1-2	8%	10µM*	-7.9%	1%	0%	-12%	?	-7%
Cc1ccccc1Cn1cnc2nc3c(cc2c1=O)CC(C)CC3 (stereo not drawn)	·	·	6.5%	·	26%	·	20%[46.1 µM]	25%
CCOc1ccccc1NC(=O)CSCC(=O)Nc1ccccc1	-7%[6.58 µM]	?	-0.2%	0%	-1%	6%	6%	4%
CN1CCN(C(=S)Nc2cccc(Cl)c2)CC1	3%	18%	0.0%	7%	-7%	4%	0%	6%
COc1ccc(-c2nc3ccc(C(=O)N4CCC5(CC4)OCCO5)cc3nc2-c2ccc(OC)cc2)cc1	-6%	·	·	5%	10%	6%	·	·
CCCc1cc(=O)oc2c(CN(CC)CC)c(O)c(Cl)cc12	0%	0%[46.1 µM]	·	-1%	-7%	-2%	1%[46.1 µM]	·
Cc1ccc(C)c(N2CCN(C(=O)CCCn3c(=O)c4cccn4c4cccnc43)CC2)c1	-10%	·	·	0%	?	-1%	·	·
CC(C)c1ccc(OCC(=O)N2CCCCCC2)c(Br)c1	-1%	?	·	-43%	37%[activator]	14%	13%[46.1 µM]	·
Cc1cc(NC(=O)c2cnn3c(C(F)F)cc(C4CC4)nc23)no1	4%	-1%	-7.6%	-4%	0%	-1%	5%	-5%
CCOc1ccccc1-n1c(CNc2ccc(F)cc2)nnc1SCC(=O)NCc1ccco1	-11%	?	-0.7%	23%	-3%	13%	-14%	?
COc1cc(NC(=O)Nc2cccc3cccnc23)cc(OC)c1OC	-6%	·	·	-35%	-17%	21%	·	·

Further entries follow:
SMILES	SARS PLpro yeast	MARV entry inh	Cruzain Triton	NS1 inh	StopGo reporter	RE007 growth inh	Lassa entry inh	Cruzain inh noDet
COc1ccc(/C=N/NC(=O)CCOc2ccccc2C)cc1OC	1%	?	-4.2%	24%	-10%	-29%	-8%	12%
CC12CCC(C(=O)N(CC(O)CN3CCN(Cc4ccccc4)CC3)C1=O)C2(C)C (stereo not drawn)	1%	5%[46.1 µM]	·	-2%	-7%	2%	-3%[46.1 µM]	·
CCCCc1c(C)nc2c(OC)cccc2c1SCCC(=O)O	6%	12%	-3.9%	-20%	0%	-11%	11%	8%
CN(C)CCCNc1nc2sc3c(c2c(=O)n1CCc1ccccc1)CCCCC3	0%	7.1µM*	·	2%	-7%	31%	?	·
Cc1ccc(NC(=O)c2ccc(CSc3nnc(C)s3)cc2)cc1	-4%	?	6.5%	3%	19%	1%	?	2%
Cc1nc(Cc2nnc(SCC(=O)Nc3c(C)cccc3C)o2)cs1	9%	3%	·	·	-16%	-6%	1%	·
Cc1ccc(C)c(Oc2coc3cc(OCC(=O)Nc4ccccc4C(C)C)ccc3c2=O)c1	4%	0%	-4.1%	30%	·	·	·	-13%
COc1cc(-c2nnc(-c3ccncc3)o2)ccc1OCc1ccccc1	-5%	-20%	-4.7%	-34%	0%	10%	-19%	?
Cc1noc(-c2ccc(NCc3ccccc3)c([N+](=O)[O-])c2)n1	·	24%[46.1 µM]	-3.6%	·	42%[activator]	·	19%[46.1 µM]	10%
O=C(NCC1CCCO1)c1cccc(NS(=O)(=O)c2ccccc2)c1 (stereo not drawn)	3%	?	·	·	-4%	5%	9%	·
NS(=O)(=O)c1ccc(NC(=O)COC(=O)c2cn(-c3ccccc3)nc2-c2ccc(F)cc2)cc1	19%	7%	1.2%	29%	-17%	0%	?	?
N#Cc1ccccc1NC(=S)Nc1ccc(F)cc1	1%	0%[46.1 µM]	·	4%	11%	3%	-7%	·
COC(=O)/C(N=Nc1c(C)n(C)n(-c2ccccc2)c1=O)=C(\C)O	-4%	3%	-4.1%	7%	0%	-2%	-10%	-1%
c1ccc(N2CCN(c3ncnc4[nH]ncc34)CC2)cc1	·	·	-0.7%	·	?	·	0%[46.1 µM]	-6%
COc1ccccc1C(=O)NC(=S)Nc1ccc(NC(=O)c2ccco2)cc1	-3%	?	·	3%	-2%	-2%	-2%[46.1 µM]	·
Cc1cccc(CNC(=O)C2CCC(=O)N(C3CCCCCC3)C2)c1 (stereo not drawn)	-1%	·	·	0%	-7%	-4%	·	·
Cc1nn(Cc2ccccc2)c(C)c1C(=O)OCC(=O)Nc1cccc(S(N)(=O)=O)c1	0%	-23%[46.1 µM]	·	-1%	-23%	4%	7%	·

Compound activity deposited in PubChem BioAssay by National Center for Advancing Translational Sciences (NCATS).

Hits appear at their usual frequency. About 4.6% of those tested had a hit in this group.
